Ba CapD inh: CapD enzyme inhibition. purified CapD enzyme, fluorescence intensity read-out; hits give low values; some hits fall short of the stated cut. z-score (no concentration beside the values). actives 0.23% (n = 140,000);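 active means z-score under -4 in either of two replicates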;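 further: stock transfer was 100 nL into about 40 µL; score is relative to mean and spread of the plate; one replicate is shown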
AID504770: E. coli YBA685 growth inhibition, screen for V. cholerae RctB inhibitors. E. coli YBA685 rctB-dependent plasmid, OD600 growth, 3 h; hits give low values. z-score (test concentration not listed). actives 0.27% (n = 130,000). AID 504770;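 active means z-score under -2 on both plates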;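 further: wells of about 30 µL received 100 nL stock; score is relative to mean and SD of the test wells; the first replicate is given; strong numbers were not always called active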
* hit, by the source's call; i = inactive; nt = not tested or not shown; & = joins results of further samples.

SMILES	Ba CapD inh	AID504770
CCOC(=O)c1sc(NC(=O)CSc2ncccn2)nc1C	0.73	0.4
Cc1c(C(=O)NCCC(C)C)oc2ccc(Br)cc12	nt	0.55
O=C(O)CCCN=Cc1c(O)c2ccccc2oc1=O	-1.45	-0.5
OCCNc1nc(Nc2ccc(I)cc2)nc(N2CCOCC2)n1	0.69	-0.1
CN=C1CN(O)C(c2ccccc2)=c2cc(Cl)ccc2=N1	-0.195	nt
C/C(=N\O)C(=O)NCCc1c[nH]c2ccccc12	-0.16	0.2
CCN(CC)C(=O)COc1ccccc1C(=O)NCc1ccccc1	nt	-0.45
COc1ccc(CCn2c(N)c(-c3nc4ccccc4s3)c3nc(C#N)c(C#N)nc32)cc1OC	-0.18	-0.6
Nc1ccc2c(c1)ncn2C1CCCCC1	nt	-0.9
Cn1c(N)c(C(=O)CN2C(=O)c3ccccc3S2(=O)=O)c(=O)n(C)c1=O	nt	-1.6
CCCn1c(SCc2cc3c(cc2Br)OCCO3)n[nH]c1=O	nt	0.35
O=C(NCC1CCCO1)c1csc2c1CCCCC2 (stereo not drawn)	-0.135	-0.7
COc1ccc(C(=O)Oc2ccc3c4c(c(=O)oc3c2)CCCC4)cc1OC	1.06	2.1
N#CCSc1nc(NCc2ccc(Cl)cc2)c2ccccc2n1	-0.22	nt
COc1cc(NC(=O)NCC2CCN(Cc3cc(C)ccc3C)CC2)cc(OC)c1	-0.805	1.1
CSC1=N/C(=C\c2c(C)nn(-c3ccccc3)c2Cl)C(=O)S1	0.385	1.5
NS(=O)(=O)c1cc2c(cc1Cl)NC(CSCc1ccccc1)=NS2(=O)=O	0.03&0.135	0.25
CN1c2ccccc2C(=O)NC1C1CC=CCC1 (stereo not drawn)	-0.32	-0.8
Cc1ccccc1NC(=O)Cn1c(C(F)(F)F)nc2ccccc21	-0.44	-0.55
c1ccc2c(-c3nnc4n3CCCCC4)c[nH]c2c1	0.185	0.85
O=C(Sc1ccccc1)c1ccc2ncsc2c1	-0.34	0.1
CNC(=O)C12N=CNN=C1N(C)C(=O)N2C (stereo not drawn)	0.22	-1.15
CCOC(=O)Cc1cc(=O)[nH]c(=O)[nH]1	nt	-0.3
NNC(=O)c1ccc(OCC(O)CO)cc1O (stereo not drawn)	59.6	-0.8
Cc1onc(-c2c(F)cccc2Cl)c1C(=O)Oc1ccccc1	-0.815	nt
CC1(C)CSC(Nc2ccccc2Cl)=N1	-0.92	-1.25
NC(=O)C1(N2CCCCC2)CCN(C(=O)c2ccc3c(=O)n(CCCN4CCCC4=O)c(=S)[nH]c3c2)CC1	-0.575	nt
COc1ccc(N2C(=O)CC(Sc3nc(C)c4ccc(C)cc4n3)C2=O)cc1 (stereo not drawn)	-0.09	nt
COC(=O)Cc1nc(NCc2ccc(Cl)cc2)c2c3c(sc2n1)CCCC3	-0.41	nt
CC(=O)N(c1ccccc1)c1nc(C)cc(C)n1	-0.08	nt
CC(CNC(=O)CCc1nnc2n(Cc3ccccc3)c(=O)c3ccccc3n12)c1ccccc1 (stereo not drawn)	20.5	0.65
CCOC(=O)C1=C(C)N=c2s/c(=C\c3ccc(OC)c(O)c3)c(=O)n2C1c1ccc(OC)c(OCC)c1 (stereo not drawn)	-0.6	nt
O=c1nc(N2CCOCC2)ccn1Cc1ccc(Cl)cc1	0.01	-1.45
CCOc1ccc(C2=NN3C(C2)c2cc(Cl)ccc2OC3c2ccc(C(=O)OC)cc2)cc1 (stereo not drawn)	-0.115	nt
COC(=O)c1ccccc1NC(=O)CSc1nc2ccsc2c(=O)n1-c1ccc(C)c(C)c1	-0.18	-0.25
O=C(O)/C=C/c1cccs1	-1.67	-1.05
CCOC(=O)C(Oc1nc(C)cc(C)n1)c1ccc2c(c1)CCO2 (stereo not drawn)	-0.195	nt
CC(=O)Nc1cc(C(=O)NCCN2CCN(c3ccccc3)CC2)ccc1S(=O)(=O)c1ccc(C)cc1	0.73	1.3
COCCn1c(N)c(NCc2ccccc2)c(=O)n(CC(=O)Nc2cc(C)ccc2C)c1=O	nt	-0.5
Nc1c(C(=O)Nc2ccccc2)c2nc3ccccc3nc2n1CCCN1CCOCC1	nt	0.3

Three of the compounds above, field by field:
COc1cc(NC(=O)NCC2CCN(Cc3cc(C)ccc3C)CC2)cc(OC)c1
  Ba CapD inh: -0.805; AID504770: 1.1
CSC1=N/C(=C\c2c(C)nn(-c3ccccc3)c2Cl)C(=O)S1
  Ba CapD inh: 0.385; AID504770: 1.5
NS(=O)(=O)c1cc2c(cc1Cl)NC(CSCc1ccccc1)=NS2(=O)=O
  Ba CapD inh: 0.03&0.135; AID504770: 0.25

Reformatted as labelled records: part of the list above
c1ccc2c(-c3nnc4n3CCCCC4)c[nH]c2c1
  Ba CapD inh: 0.185
  AID504770: 0.85
O=C(Sc1ccccc1)c1ccc2ncsc2c1
  Ba CapD inh: -0.34
  AID504770: 0.1
CNC(=O)C12N=CNN=C1N(C)C(=O)N2C (stereo not drawn)
  Ba CapD inh: 0.22
  AID504770: -1.15
CCOC(=O)Cc1cc(=O)[nH]c(=O)[nH]1
  Ba CapD inh: nt
  AID504770: -0.3

(continued)
SMILES	Ba CapD inh	AID504770
Cc1cc(C)nc(SCc2nc3ccccc3c(=O)n2-c2ccccc2)n1	-0.005	-1.65
N#CC1=C(N)C(C#N)(C#N)C(c2ccccc2)C2CNCC=C12 (stereo not drawn)	31	-0.95
O=C(CSc1ccccc1)NCCc1ccccc1	0.305	-0.25
CNc1c(NC(=O)c2ccco2)c(=O)oc2ccccc12	-0.14	-1.1
C=CCn1c(SCC(=O)Nc2cccc(C)c2)nc2sc(CC)cc2c1=O	-0.18	nt
CCNc1nc(NCC)nc(Oc2ccc(C(=O)OCC)cc2)n1	1.06	nt
COc1cc(N=C(SCc2c(C)c(C)c(C)c(C)c2C)N2CCOCC2)c(OC)cc1Cl	-0.125	0.35
Cc1ccc(C)c(NC(=O)CSC2=C(C#N)C(c3ccc(C(C)C)cc3)CC(=O)N2)c1 (stereo not drawn)	0.045	nt
O=C(Cc1ccccc1)NCc1nc(-c2ccccc2)no1	-1.87	-0.2
CCN(c1ccccc1)S(=O)(=O)c1ccc2c(c1)CC(C)N2C(=O)C1CC1 (stereo not drawn)	0.29	-0.1
COc1ccc(N2C(=O)/C(=C/c3cc(OC)c(OC)cc3Cl)NC2=S)cc1	-0.705	nt
CS(=O)(=O)N(CC(=O)NCc1ccccc1)c1cc(C(F)(F)F)ccc1Cl	53.6	1.1
CCN(CC)C(=O)c1cccc(NC(C)=O)c1	nt	-0.5
CSCCC(NC(=O)c1ccc(C(F)(F)F)cc1)C(=O)N/N=C/c1ccc(N(C)C)c2ccccc12 (stereo not drawn)	1.25	nt
COC(=O)n1c(SC)nc2ccccc21	1.05	0.05
CCN(CC)c1ccc(N=Cc2cc(C)n(-c3ccc(OC(C)=O)cc3)c2C)cc1	-1	-1.35
O=S(=O)(c1ccc2c(c1)CCO2)N1CCCN(c2nccc(C(F)(F)F)n2)CC1	4.73	-0.4
CN1/C(=C\C=N\O)C(C)(C)c2ccccc21	nt	0.25
CCc1nnc2n1Nc1nc3ccccc3nc1S2	0.22	-0.15
Cc1cc2c(cc1C)N(C(=O)CN1CCCCC1)C(C)(C)c1ssc(=S)c1-2	-1.03	nt
Cc1ccc(C)c(NC(=O)CN2C(=O)C3CC=CCC3C2=O)c1 (stereo not drawn)	nt	1.25
Cc1noc(C)c1S(=O)(=O)NC1Cc2ccccc2C1	-0.545	0.15
COc1ccc(/C=C2N=C(/C=C/c3ccc(Cl)cc3Cl)OC\2=O)cc1OC(C)=O	-1.02	nt
COc1cc(-c2nc(SCC(=O)NC3CCCC3)c(-c3ccccc3)[nH]2)cc(OC)c1OC	34.8	1.8
Cc1ccc(CS(=O)(=O)Cc2ccc(C(=O)NCc3ccccn3)o2)cc1	-0.37	-0.5
CN(C1CCCCC1)S(=O)(=O)c1ccc(CN2C(=O)c3cccnc3C2=O)cc1	0.02	0.9
COc1ccccc1CNc1cc(CSc2ccc(Cl)cc2)nc(C)n1	-0.64	nt
Cc1ccc(-c2nnc(NC(=O)COc3ccccc3)s2)cc1	i	0.2
COc1ccc(S(=O)(=O)Nc2ccc(S(=O)(=O)N3CCCC3)cc2)cc1C	nt	-0.75
Cc1ccccc1-n1nc2c(c1NC(=O)c1cc3ccccc3oc1=O)CSC2	-0.29	nt
COc1ccc(CCNCc2ccccc2O)cc1	nt	0.15
c1csc(CNC2CC2)c1	nt	1.5
O=c1[nH]cc(NC2CCCCC2)c(=O)[nH]1	-0.415	-0.5
COc1cc(OC)nc(N2CCN(C(=O)Nc3ccc(F)cc3F)CC2)n1	-0.5	nt
CC(=NCCN1CCN(C(=O)c2ccccc2)CC1)c1c(C)[nH]n(-c2nc3ccccc3s2)c1=O	-0.15	-0.15
CCOC(=O)c1sc2nc(CC(=O)OC)nc(Nc3cc(Cl)c(OC)cc3OC)c2c1C	-0.51	nt
Cc1cccc(N2CCN(C(=O)C(C)(C)Oc3ccc(Cl)cc3)CC2)c1C	nt	-0.5
CCOc1ccc2nc(Sc3ccc(C=C4C(=O)NC(=S)NC4=O)o3)sc2c1	-1.03	nt
COCCCNC(=S)NNC(=O)c1cc(OC)c(OC)c(OC)c1[N+](=O)[O-]	0.195	nt
CC1=C(C(=O)OC2CCCN(C)C2)C2(O)C(=O)c3ccccc3C2(O)N1 (stereo not drawn)	0.325	-0.25
Cn1ncc(Br)c1NC(=O)C(C)(C)C	-1.14	-0.6
Nc1cccnc1N1CCOCC1	3.29	0.7
Oc1ccc(C=NCc2ccco2)cc1	-1.08	-0.2
COC(=O)CN(c1ccccc1Cl)S(C)(=O)=O	nt	-0.4
Cc1ccc(C(=O)NC(NCc2ccco2)(C(F)(F)F)C(F)(F)F)cc1	0.62	-0.85
COc1ccccc1C(=O)Nc1nc2ccccc2n1CCOc1ccccc1	0.4	-0.25
CC(C)(C)CC(C)(C)c1ccc(O)c(Cc2ccc(Cl)cc2Cl)c1	0.15	-0.15
Cc1ccc(S(=O)(=O)N2CCN(c3cc(C)c4cccc(C)c4n3)CC2)cc1	0.87	nt
CCOc1ccccc1N/C(SCc1ccccc1F)=C(/C#N)C(=O)NCc1cccs1	-0.415	nt
Cc1nc2ccncc2cc1C(=O)/C=C/N(C)C	-1.29	nt
CC1(C)CC(=O)C2=C(C1)OC1=C(C(=O)CC(C)(C)C1)C2c1cccc(F)c1	-0.23	nt
Cc1cc(NC(=O)CSc2nc3cc(C(=O)NCCCOC(C)C)ccc3c(=O)n2Cc2ccco2)no1	2.75	nt
CCCCNC(=O)c1cc(C)nc2ccccc12	nt	0.25
Cc1ccc2c(c1)CCCN2C(=O)c1sc2ccccc2c1Cl	-0.265	nt
N#Cc1sc2ncc3c(c2c1N)CCCC3	20.2	-0.75
CC1=NN(c2cccc3ccccc23)C(=O)C1	nt	1.95
CC(=O)N1CCN(C(=O)COc2ccc(NC(=O)c3ccccc3)cc2)CC1	nt	-0.75
CCOC(=O)C1=C(C)NC(SCC(N)=O)=C(C#N)C1c1cccc([N+](=O)[O-])c1 (stereo not drawn)	-0.64	nt
Fc1ccc(N2CCN(c3ncc(-c4ccc(Cl)cc4)cn3)CC2)cc1	-0.38	nt
OC1C=COC2COC(c3ccccc3)OC12 (stereo not drawn)	1.29	-0.5
(next part)
SMILES	Ba CapD inh	AID504770
CCC1(C)Cc2c(sc3[nH]c(=S)n(-c4ccc(OC)cc4)c(=O)c23)CO1 (stereo not drawn)	-1.44	nt
S=C(/C(=C/N1CCOCC1)c1ccccc1)N1CCOCC1	23.9	0.35
N#CC1=C(N)OC2=C(C(=O)CCC2)C1c1ccccc1 (stereo not drawn)	0.12	-0.2
CCN(CC)c1ncc2c(SCC(N)=O)nc(SCC(N)=O)nc2n1	2.35	-0.3
CC(c1ccccc1)C1C(C#N)=C(N)Oc2n[nH]c(-c3ccccc3)c21 (stereo not drawn)	-0.045	0
COc1ccc(Cl)cc1NC(=O)C1CCCN(c2cc(C)nc3ncnn23)C1 (stereo not drawn)	nt	0.65
O=C(Oc1ccc(-c2nnco2)cc1)c1ccccc1OC(F)F	nt	0.05
Cc1[nH]c2ccc(OC(F)(F)F)cc2c1CCNC(=O)C1CC=CCC1C(=O)OC(C)C (stereo not drawn)	-0.31	-0.4
O=C(CC12CC3CC(CC(C3)C1)C2)NO	nt	-0.05
CCOC(=O)c1c(/C=C2\C(=O)Nc3ccccc32)c(C)n(-c2ccccc2)c1C	-1.77	0.35
O=C(O)CCNc1nc(-c2ccccc2)c2cc(Br)ccc2n1	0.285	-0.3
CC(C)OC(=O)c1ccc(N)cc1	nt	-0.7
O=C(CN1CCCCC1)Nc1ccc(I)cc1	-0.515	-1.35
CC1CCC(=C(C#N)C(=O)NCc2ccccc2)CC1 (stereo not drawn)	0.565	0.8
COc1ccc(Cl)cc1-n1c(=S)sc2c(=O)[nH]c(SCC(=O)Nc3cc(C)on3)nc21	-1.48	nt
Cn1c(NN)nc2c(c1=O)C1(CCCC1)Cc1ccccc1-2	nt	-0.5
NC(=S)Nc1ccc(OCc2ccccc2)cc1	nt	0.95
CC(=O)Nc1ccccc1Br	0.395	0.25
Cc1ccc(CNC(=O)C2C3C=CC4(CN(Cc5cccs5)C(=O)C24)O3)cc1 (stereo not drawn)	0.345	nt
COc1cccc(-c2ccc(-c3noc(-c4cccnc4)n3)c(OC)n2)c1	26.2	-0.2
O=C(CN1CCCc2ccccc21)Nc1ccc(Cl)c(Cl)c1	0.105	-0.3
COC(=O)CC1C(=O)NCCN1C(=O)Nc1ccccc1 (stereo not drawn)	-0.305	-0.85
Clc1cccc(CN2CCN(Cc3ccco3)CC2)c1	0.61	-0.8

Rows are unselected (roughly 0.41% active in at least one column).
